From PubChem
NPYLR7 agonist: activates Aedes aegypti NPYLR7 receptor; activation, % at 10 µM; 270,000 tested, 0.15% active; HEK293T NPYLR7/Galpha15, GCaMP6s calcium fluorescence; in the data active = activation above about 40%;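 also: 0% = vehicle and 100% = reference agonist at the receptor; some compounds past the cut are filed as inactive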
NPYLR7 agonist max-min: second read-out of NPYLR7 agonist, no call of its own (marks repeat the call); activation, %; measured here: Max-Min RFU normalised activation; some inactives read as strong as hits;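 span of the calcium signal over five minutes; 0% = vehicle and 100% = native peptide agonist; compound fluorescence can raise it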
An asterisk follows results filed as active; & = joins results of further samples. Some of the compounds tested; the hit share may differ from the screen's.

Each structure is followed by: NPYLR7 agonist, NPYLR7 agonist max-min
1. COc1ccc(C(=O)N2C(C(=O)NCc3cccnc3)COC23CCN(C(=O)c2ccccc2Cl)CC3)cc1 (centres undefined)
 : 1, 3
2. COCc1cc(N2CCN(c3ccccc3F)CC2)nc(SCc2ccc(C(=O)N3CCCC3)o2)n1
 : 5, 3
3. Cn1nc(C(=O)Nc2cnc3n2CCCC3)ccc1=O
 : 8, 5
4. C=CCn1c(=NC(=O)c2ccc(OC)cc2)sc2cccc(OC)c21
 : 4, 3
5. O=C1/C(=C/c2cc3ccccc3o2)Oc2c1ccc(O)c2CN1CCN(CCO)CC1
 : 108*, 111*
6. Cc1cccnc1CN(C)c1ncnc2c1CCN(C(=O)C1CC1)C2
 : 2, 1
7. O=C(CC1C(=O)NCCN1Cc1ccc(-c2ccccc2)cc1)NCc1ncc[nH]1 (centres undefined)
 : 3, 3
8. CCOc1ccc(N2CCn3c2nc2c3c(=O)n(CC)c(=O)n2C)cc1
 : 2, -1
9. CCN(Cc1noc(CC(C)C)n1)C(=O)CC1COCCN1 (centres undefined)
 : 29, 14
10. O=C(NCc1coc(-c2ccccc2)n1)c1cn(CC2CCCNC2)nn1 (centres undefined)
 : -5, -7

The list goes on.
Each structure is followed by: NPYLR7 agonist, NPYLR7 agonist max-min
11. Cc1ncc2c(c1-c1noc(-c3ccc4ncsc4c3)n1)CCNC2
 : 25, 7
12. O=[N+]([O-])c1cn2c(n1)OC[C@@H](OCc1ccc(OC(F)(F)F)cc1)C2
 : 1, -6
13. CCn1cc(CNCc2cn(-c3ccc(F)cc3)nc2-c2ccccc2Cl)cn1
 : 3, -6
14. Cc1ccc(NC(C)(C(=O)N(C)Cc2ncc(C)[nH]2)c2ccccc2)cc1 (centres undefined)
 : -2, -4
15. N#Cc1ccc(-c2cc(C3(CNCc4ccc(F)c(F)c4)CC3)ccn2)cc1
 : 15, 28
16. CC(=O)Nc1nc2ccc(N=Cc3nc(-c4cccc5ccccc45)oc3O)cc2s1
 : -3, -6
17. COc1ccc(-c2cc(C(=O)NC(Cc3ccccc3)c3ccccc3)n(-c3ccc(C)cc3C)n2)cc1 (centres undefined)
 : -3, -1
18. Cn1cc(CC(=O)NC2CC(=O)N(Cc3ccc(F)cc3)C2)c2ccccc21 (centres undefined)
 : -1, -3
19. COc1cc(C(=O)NCC(=O)N=Nc2c(O)[nH]c3ccccc23)cc(OC)c1OC
 : -3, -10
20. CCOc1c(C)cnc2c1c(=O)n(C)c(=O)n2C
 : -1, -2

More records follow.
Each structure is followed by: NPYLR7 agonist, NPYLR7 agonist max-min
21. O=C(NNc1c(Cl)cc(Cl)cc1Cl)c1ccc(=O)[nH]n1
 : 1, -2
22. COCCCN(CC(=O)N(Cc1ccccc1)Cc1cccn1Cc1cccc(OC)c1)C(=O)CCc1ccccc1
 : 15, 12
23. CN(CCc1c[nH]c2ccc(NC(=O)c3c(F)c(F)c(F)c(F)c3F)cc12)C1CCCCC1
 : 6, 3
24. COC(=O)C1=C(C)N(C)C(C)=C(C(=O)OC)C1c1ccc(Br)cc1
 : -7, -14
25. CC(C)[C@H](NC(=S)Nc1c(Cl)cccc1Cl)c1nnc2c(C(F)(F)F)cccn12
 : -17, -23
26. CCCCn1c(=O)[nH]c(=O)c2c1nc(CCC(=O)Nc1nccs1)n2CC(C)C
 : 21, 8
27. CN1CCN(C(CNC(=O)COc2ccccc2)c2ccc3c(c2)CCCN3C)CC1 (centres undefined)
 : 9, 6
28. CNc1nc2cnc(Nc3cccc(C(C)=O)c3)cc2n1CCN1CCOCC1
 : 4, -6
29. O=C(NCCN1N=C(c2ccccc2)CCC1=O)c1cccc2ccnn12
 : 0, -3
30. CCCCSCC(O)CN1CCOCC1 (centres undefined)
 : 4, 2

The list goes on; it opens with the two that closed the last part.
Each structure is followed by: NPYLR7 agonist, NPYLR7 agonist max-min
29. O=C(NCCN1N=C(c2ccccc2)CCC1=O)c1cccc2ccnn12
 : 0, -3
30. CCCCSCC(O)CN1CCOCC1 (centres undefined)
 : 4, 2
31. CCNC(=O)N1CCN(C(=O)CCc2cc(F)ccc2F)CC1
 : 10, 7
32. CCCn1cc(C2CCN(C(=O)CC(C)(C)C)CC2)c2ccccc21
 : 5, -2
33. CC(=O)O[C@H]1C(=O)[C@@]2(C)C([C@H](OC(=O)c3ccccc3)[C@]3(O)C[C@H](OC(=O)[C@H](O)[C@@H](NC(=O)c4ccccc4)c4ccccc4)C(C)=C1C3(C)C)[C@]1(OC(C)=O)CO[C@@H]1C[C@@H]2O (some centres undefined)
 : -10&-1, -19&25
34. Cc1nc(C(C)(C)C)[nH]c(=O)c1C(=O)Nc1ccc2c(c1)CCCO2
 : -1, -3
35. CCCNC(=O)c1cc(C2CCCCN2S(=O)(=O)c2cn(C)cn2)on1 (centres undefined)
 : 0, -3
36. NC(=O)c1ccc(NC(=O)CC2CSc3nc4c(cnn4-c4ccccc4)c(=O)n32)cc1 (centres undefined)
 : 0, 0
37. O=C1CN(C(=O)COc2cccc(N3CCCC3=O)c2)c2ccccc2N1
 : 9, 10
38. Cc1ncsc1CCN(C)C(=O)c1cc(COc2ccccc2)[nH]n1
 : -1, -3
39. COc1cc2c(c(OC)c1OC)COC2=O
 : -6, -8
40. COc1cc(OC)c(NS(=O)(=O)c2ccc(Cl)c(Cl)c2)cc1Cl
 : 3, -1

The list continues:
Each structure is followed by: NPYLR7 agonist, NPYLR7 agonist max-min
41. COc1ccccc1N1CCN(C2CCCN(c3ccc(C(C)=O)cn3)C2)CC1 (centres undefined)
 : 4, 1
42. O=C(CSc1nc2cc(Cl)ccc2s1)NCc1ccc(CN2CCOCC2)cc1
 : 3, 2
43. CCN1CCN(C2CCN(c3nc4nonc4nc3N3CCSCC3)CC2)CC1
 : 3, -1
44. Cc1nn(C(C)C(=O)NC(C)C)c(=O)c2cc3sccc3n12 (centres undefined)
 : 5, 5
45. O=C(Nc1cc(C(F)(F)F)cc(C(F)(F)F)c1)Nc1ccc(N2CCc3ccccc3C2)c(C(=O)N2CCCC2)c1
 : -9, -10
46. CCn1nnnc1SCC(=O)N(C)C1CCS(=O)(=O)C1 (centres undefined)
 : -3, -3
47. CCN(CC)S(=O)(=O)c1ccc2c(c1)CCN2S(=O)(=O)c1cccc(Br)c1
 : 5, 2
48. COCCN=c1scc(-c2ccc(OC)cc2)n1N=Cc1cc2c(cc1[N+](=O)[O-])OCO2
 : -11, -12
49. CCCC(=O)N1CCN(S(=O)(=O)c2ccc(C#N)cc2)CC1
 : 6, 4
50. CC(C)Oc1ccc2cc(C(=O)NCC3CCN(C)C3)c(=O)oc2c1 (centres undefined)
 : 3, 1

Following part:
Each structure is followed by: NPYLR7 agonist, NPYLR7 agonist max-min
51. N#Cc1ccc(C(O)CSc2n[nH]c(=O)n2C2CC2)cc1 (centres undefined)
 : -1, -4
52. CC(CNC(=O)Nc1nc2ccccc2s1)CC1(C)OCCO1 (centres undefined)
 : 13, 13
53. CCCN(CC(=O)Nc1ccc(Cl)cc1)C(=O)c1cc(C)[nH]n1
 : 5, 2
54. O=C(N/C=C/n1cnc2cc(C(F)(F)F)ccc21)c1ccccc1F
 : 4, 1
55. O=C(Nc1ccc(Oc2cc(Cl)ccc2Cl)c(F)c1)C(=O)N1CCC(O)CC1
 : 2, 1
56. O=C(N=Nc1c(O)[nH]c2ccccc12)c1cc(-c2ccco2)[nH]n1
 : 1, 2
57. CC(C)c1ccccc1NC(=O)c1ccc(-n2nc(-c3ccc(Cl)c(Cl)c3)cc2N)cc1
 : -10, -13
58. N#Cc1ccccc1S(=O)(=O)N1CCN(C(=O)c2ccc(-c3cc(Cl)ccc3Cl)o2)CC1
 : 2, 3
59. Cc1c(CCOC(=O)C23CC4CC(CC(C4)C2)C3)sc[n+]1CC#N
 : -6, -8
60. CN(C)CCNC(=S)Nc1ccc(F)c(F)c1F
 : 0, -1

(further entries)
Each structure is followed by: NPYLR7 agonist, NPYLR7 agonist max-min
61. COC(=O)Nc1ccc(S(=O)(=O)N2CCCC(C(=O)Nc3ccc(C)c(C)c3)C2)cc1 (centres undefined)
 : -2, -4
62. Cc1nnc(CNC(=O)c2csc(Nc3ccccc3)n2)o1
 : 2, 2
63. C=CCn1c(=O)c2c(nc3n2CCN3c2cccc(C)c2C)n(C)c1=O
 : -4, -8
64. COc1cc(-c2nc3n(n2)C(c2ccc(O)cc2)C(C(N)=O)=C(C)N3)cc(OC)c1OC (centres undefined)
 : 51*, 51*
65. CC(Sc1nncn1C(C)c1ccccc1)C(=O)NC(=O)NC(C)(C)C (centres undefined)
 : 5, 3
66. CCCOc1ccc(C2C(C(=O)OC)=C(C)NC3=C2C(=O)CC(c2ccc(Cl)cc2)C3)cc1 (centres undefined)
 : -2, -7
67. CC(C)=CCC/C(C)=C/CNC(=O)c1ccc(Nc2cccc(C(F)(F)F)c2)nc1
 : -1, -13
68. COc1cccc(C(C2Sc3nc(C)nn3C2=O)N2CCc3ccccc3C2)c1 (centres undefined)
 : -12, -11
69. O=C(CC1Cn2ncc(-c3ccc(Cl)cc3)c2NC1=O)NC1CCCCC1 (centres undefined)
 : 8, 6
70. COc1cc(OC)cc(N2CCN(C(=O)c3ccccc3Cl)C(C)C2=O)c1 (centres undefined)
 : 17, 40

In the list so far, 5 have an aryl thioether with sulfur outside any ring.
Each structure is followed by: NPYLR7 agonist, NPYLR7 agonist max-min
2. COCc1cc(N2CCN(c3ccccc3F)CC2)nc(SCc2ccc(C(=O)N3CCCC3)o2)n1
 : 5, 3
42. O=C(CSc1nc2cc(Cl)ccc2s1)NCc1ccc(CN2CCOCC2)cc1
 : 3, 2
46. CCn1nnnc1SCC(=O)N(C)C1CCS(=O)(=O)C1 (centres undefined)
 : -3, -3
51. N#Cc1ccc(C(O)CSc2n[nH]c(=O)n2C2CC2)cc1 (centres undefined)
 : -1, -4
65. CC(Sc1nncn1C(C)c1ccccc1)C(=O)NC(=O)NC(C)(C)C (centres undefined)
 : 5, 3

Other results.
Each structure is followed by: NPYLR7 agonist, NPYLR7 agonist max-min
71. Cc1nc(N2CCN(C)CC2)ncc1-c1cc(=O)[nH]c(N2CCc3ccccc32)n1
 : -4, 0
72. CCOC(=O)c1ccc(Cl)c(NC(=O)CC(C)C)c1
 : 10, 4
73. COCCN(CC(=O)N(Cc1ccc2c(c1)OCO2)Cc1ccco1)C(=O)Nc1c(C(C)C)cccc1C(C)C
 : 4, 2
74. COc1ccc(-c2noc(CNCC3CCS(=O)(=O)C3)n2)cc1 (centres undefined)
 : 6, 4
75. O=C(O)c1cc2n(n1)CCN(Cc1ccccc1)C2
 : 4, 2
76. COc1ccc(-c2ccc(CN3CCCC3)cn2)cn1
 : 3, 3
77. Cc1cccnc1C(NC(=O)C1CCN(Cc2ccccc2)CC1)c1ccccc1 (centres undefined)
 : -15, -16
78. O=C(CN(C(=O)c1cc(C(F)(F)F)cc(C(F)(F)F)c1)C1CC1)N(CCc1c[nH]c2ccccc12)Cc1ccc(C(F)(F)F)cc1
 : 9, 4
79. Cc1cc(C)n(-c2nc3c(c(=O)[nH]c(=O)n3C)n2CC(O)COc2ccccc2Cl)n1 (centres undefined)
 : 3, 5
80. CC1(C(=O)NCc2ccccc2Br)CCN1Cc1ccccc1OC(F)F (centres undefined)
 : 5, -1

The results go on.
Each structure is followed by: NPYLR7 agonist, NPYLR7 agonist max-min
81. O=S(=O)(c1ccccc1)c1cnc2c(N3CCNCC3)cccc2c1
 : 0, -3
82. COc1ccccc1N1CCN(C(=O)c2ccc(Cl)cc2)CC1
 : 19, 19
83. Cc1cc(N2C[C@H](O)[C@@H](N3CCCCC3)C2)nc(-c2ccccc2)n1
 : -1, -2
84. CN1c2ccccc2C(=O)N2CCc3c([nH]c4ccccc34)C21 (centres undefined)
 : 3, 4
85. O=C(CN1CN(c2ccccc2)C2(CCN(C(=O)c3cc(C(F)(F)F)cc(C(F)(F)F)c3)CC2)C1=O)NCc1ccc(F)cc1
 : 5, 2
86. C=CCn1c(=O)c(C(=O)Nc2cccc(Cl)c2)c(O)c2ccccc21
 : 10, 8
87. Cc1ccsc1-c1nc(COc2ccccc2C(=O)N(C)C)c(C)o1
 : 2, 0
88. NC1=NC(=O)NC(=O)C1
 : -7, -8
89. CCC1CN(CC(=O)NC2CCOCC2)CCC1c1ccccc1 (centres undefined)
 : 3, 1
90. CCOC(=O)C1=C(CC)NC2=C(C(=O)CCC2)C1c1ccc(OC)c(OC)c1 (centres undefined)
 : -3, -9

Remaining list, next part.
Each structure is followed by: NPYLR7 agonist, NPYLR7 agonist max-min
91. CCN(CC)CCNc1cc(C)nc2c(C)c(-c3ccc(OC)c(OC)c3)nn12
 : 2, 10
92. CC1=NC2=C(C(=O)CC(c3ccccc3)C2)C(c2ccc3c(c2)OCO3)C1C#N (centres undefined)
 : -7, -11
93. CC(C1CC1)N(CC(F)(F)F)C(=O)C1CCS(=O)(=O)C1 (centres undefined)
 : -1, 0
94. CCN1C(=O)C(=O)N(CC(=O)NCC2CCCCC2)C1=O
 : 2, 14
95. Cc1ccc(N2CCN(C(=O)C(C)C)C(C)C2=O)cc1Cl (centres undefined)
 : 8, 9
96. CC(C)(C)OC(=O)NCC1CCC(C(=O)NCCc2nc3ccccc3[nH]2)CC1 (centres undefined)
 : -2, -3
97. O=S(=O)(NCC1CCCO1)c1cccc2cccnc12 (centres undefined)
 : 6, 6
98. CC1CCC(C)(NC(=O)CCc2nc(-c3cccnc3)no2)CC1 (centres undefined)
 : 10, 8
99. Cc1ccc(C(=O)Nc2ccccc2SCC(F)(F)F)cc1
 : 6, 3
100. COc1ccc(-c2cc(C(=O)NCc3ccc(Cl)cc3)c3ccccc3n2)cc1OC
 : -6, -9
101. CN(Cc1nc2ccccc2s1)Cn1nc(-c2ccc(Cl)cc2)n(C)c1=S
 : 1, -1

2 entries from above, with one line to a screen.
18. Cn1cc(CC(=O)NC2CC(=O)N(Cc3ccc(F)cc3)C2)c2ccccc21 (centres undefined)
39. COc1cc2c(c(OC)c1OC)COC2=O
compound no.,18,39
NPYLR7 agonist,-1,-6
NPYLR7 agonist max-min,-3,-8

Two entries from above, set out differently.
# | structure | NPYLR7 agonist | NPYLR7 agonist max-min
93 | CC(C1CC1)N(CC(F)(F)F)C(=O)C1CCS(=O)(=O)C1 (centres undefined) | -1 | 0
96 | CC(C)(C)OC(=O)NCC1CCC(C(=O)NCCc2nc3ccccc3[nH]2)CC1 (centres undefined) | -2 | -3
